# Bioassay records: PubChem BioAssay, several laboratories
# CBX7 inh: CBX7 chromodomain binding inhibitors, primary screen, biochemical, AlphaScreen | AID 1224903, 2016 | Chromobox protein homolog 7 (Homo sapiens), O95931 | 66,000 compounds, 1.1% hits | AlphaScreen His6-CBX7 / biotin-H3K27me3 peptide binding; active compounds read low | normalised signal (fraction of DMSO) (concentration not given with the values); in the data active = normalised signal below about 0.5;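 also: 100 nL library stock added to about 20 µL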
# Target sequence (O95931 whole entry, looked up): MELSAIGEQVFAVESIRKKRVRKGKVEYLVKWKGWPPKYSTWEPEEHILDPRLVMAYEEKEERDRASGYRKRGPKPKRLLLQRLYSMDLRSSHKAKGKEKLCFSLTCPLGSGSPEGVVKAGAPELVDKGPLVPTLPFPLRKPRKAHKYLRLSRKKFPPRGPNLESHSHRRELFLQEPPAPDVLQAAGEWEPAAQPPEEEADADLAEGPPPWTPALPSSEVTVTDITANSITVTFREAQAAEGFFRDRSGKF
# CBX7 inh z-score: also measured in CBX7 inh; calls as there; z-score; measured here: z-score of CBX7 signal; some inactives read as strong as hits; reference of the scale not given here;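 same signal on another scale; lower means less binding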
# * = called active by the depositor; & = joins results of further samples. Only part of the results is shown (hit frequency here may not be typical).
SMILES,CBX7 inh,CBX7 inh z-score
COc1ccc(N2CCN(c3ncnc4sc(C(=O)Nc5ccc6c(c5)OCO6)c(C)c34)CC2)cc1,0.68,-0.56
COCCn1cc(C(=O)Nc2ccccc2OC)c2c3ccccc3n(C)c2c1=O,1,0.66
COc1ccc(-c2nn(C)c3sc(C(=O)NCCCN4CCc5ccccc5C4)cc23)cc1OC,0.93,-2.1
Cc1ccc(Cn2cc(S(=O)(=O)c3ccc(C)cc3)c(=O)c3cc(F)ccc32)cc1,1,1.7
CCCCN(Cc1ccccc1)S(=O)(=O)c1ccc2c(c1)CCN2C(=O)CCC(=O)O,0.99,-0.22
O=S(=O)(NCCc1nc2ccccc2[nH]1)c1ccc(Cl)cc1,1,0.76
O=C1CC(c2ccccc2Cl)Sc2ccccc2N1 (centres undefined),1.1,0.99
CCOC(=O)N1CCC(NC(=O)C2CCCN(Cc3nc(-c4cccc(Cl)c4)oc3C)C2)CC1 (centres undefined),1,0.25
O=C(NCCC1=CCCCC1)c1ccc2c(c1)C(=O)N(c1ccccn1)C2=O,1,0.043
CCOc1ccc(N2C(=O)C3C4c5ccccc5C(C)(c5ccccc54)C3C2=O)cc1 (centres undefined),0.81,-2.1
CC(C)(C)NC(=O)C1CCCN(S(=O)(=O)c2cccc3cccnc23)C1 (centres undefined),1.1,0.98
COc1ccc(-c2nc(CN3C(=O)CSc4ncccc43)c(C)o2)cc1OC,0.81,-0.73
CCCC1CCC(c2nc(-c3ccc(Br)cc3)no2)CC1 (centres undefined),1.1&0.86,1.3&-0.2
CC1CCC(NC(=O)c2ccc3nc(N4CCC(C)CC4)sc3c2)CC1 (centres undefined),0.93,-1.6
Cc1cc(N(C)CCC#N)n2nc(C)c(-c3ccc(Cl)cc3)c2n1,1.1,2.8
Cc1ncoc1C(=O)Nc1ccccc1C(F)(F)F,0.92,-1.9
COc1cc(OC)cc(C(=O)Nc2c3c(nn2-c2ccccc2C)CSC3)c1,1,0.5
O=C(NCc1cccnc1)NC1(c2ccccc2)CC1,1.1,1.1
O=C(Nc1nc(-c2ccccc2)ns1)c1ccc(Cl)cc1,0.99,-0.1
Cc1ccc2nc(-c3ccc(NC(=O)COc4cccc(Br)c4)cc3)sc2c1,1,0.35
Cc1ccc(-c2nc(SCC(=O)Nc3nccs3)c(-c3ccc(Cl)cc3)[nH]2)cc1,0.76,-3.8
O=C(NCCC1=CCCCC1)c1cc(=O)[nH]c2ccc(S(=O)(=O)N3CCCCCC3)cc12,1,0.38
Oc1ccc(-c2nc3cnccn3c2NC2CCCC2)cc1,1.1,0.52
Cc1c(Cl)cccc1NC(=O)CC1Sc2ccccc2NC1=O (centres undefined),1,0.075
Cc1ccc(C(=O)Nc2cccc(-c3nc4ccccc4o3)c2)cc1,1.4,3.4
COc1ccc(-c2nc(CSCC(=O)N3CCOCC3)c(C)o2)cc1,1.2,2.3
Cc1nn(-c2cc(C)c3ccccc3n2)c2c1C1C(C2)C1(C)C (centres undefined),1.1,1
Cn1c(=O)[nH]c(=O)c2c1nc(CN1CCN(c3cccc(Cl)c3)CC1)n2CC(N)=O,1.1,1.9
CC(C)c1ccc(OCc2nc(-c3cccnc3)no2)c(Br)c1,0.87,-1.6
COc1ccc2cc(CCNC(=O)C3CC3)c(=O)[nH]c2c1,1,1.1
Nc1cc(-c2ccc(Cl)cc2)nn1Cc1ccccc1,0.77,-5.1
Cc1cc(C)cc(Nc2cc(C(=O)NCC3COc4ccccc4O3)c3ccccc3n2)c1 (centres undefined),1.1,1.2
COc1ccc(-c2cc(C(F)(F)F)nc(-n3ccnc3)n2)cc1,1,0.34
O=C(CSc1nc2ccccc2[nH]1)Nc1nnc(-c2ccccc2)s1,1.5,3.5
Cc1ccc(NC(=O)C(=O)NCc2ccccn2)cc1C,0.98,-0.27
COc1ccc(NC(=O)C2CCCN(S(=O)(=O)c3cccc4cccnc34)C2)c(OC)c1 (centres undefined),0.95,-0.8
Cn1cc(CC(=O)Nc2ccc(Cl)cn2)c2ccccc21,0.96,-1.9
Cc1ccc(NC(=O)CSc2nnc(COc3ccccc3Cl)o2)cc1C,1.1,1.1
COc1ccccc1NC(=O)CCNC(=O)Cn1ccc2ccccc2c1=O,1,0.82
COc1ccc(Nc2cc(C(=O)NCC3CCCO3)c3ccccc3n2)c(OC)c1 (centres undefined),0.75,-3.8

# Fetched by structure from the list above:
SMILES,CBX7 inh,CBX7 inh z-score
CCOC(=O)N1CCC(NC(=O)C2CCCN(Cc3nc(-c4cccc(Cl)c4)oc3C)C2)CC1 (centres undefined),1,0.25
Cc1c(Cl)cccc1NC(=O)CC1Sc2ccccc2NC1=O (centres undefined),1,0.075
COCCn1cc(C(=O)Nc2ccccc2OC)c2c3ccccc3n(C)c2c1=O,1,0.66

# Returning to the listing, starting four compounds before the break.
SMILES,CBX7 inh,CBX7 inh z-score
Cn1cc(CC(=O)Nc2ccc(Cl)cn2)c2ccccc21,0.96,-1.9
Cc1ccc(NC(=O)CSc2nnc(COc3ccccc3Cl)o2)cc1C,1.1,1.1
COc1ccccc1NC(=O)CCNC(=O)Cn1ccc2ccccc2c1=O,1,0.82
COc1ccc(Nc2cc(C(=O)NCC3CCCO3)c3ccccc3n2)c(OC)c1 (centres undefined),0.75,-3.8
O=C(Nc1c(-c2cccs2)nc2ccccn12)C(c1ccccc1)c1ccccc1,0.94,-0.11
COc1ccccc1CNC(=O)C1CCCN(Cc2nc(-c3cccc(Cl)c3)oc2C)C1 (centres undefined),0.95,-0.6
O=C(O)c1ccc(Cl)c(N2C(=O)C3C4c5ccccc5C(c5ccccc54)C3C2=O)c1 (centres undefined),1,0.073
CCOC(=O)Cc1csc(NC(=O)CCc2ccccc2)n1,0.92,-0.96
COc1ccc(CCNC(=O)c2cc(=O)n(Cc3ccc(Cl)cc3)c3ccccc23)cc1OC,0.83,-1.9
Cc1cccc(OCCCC(=O)Nc2nnc(C)s2)c1,1,1.3
Cc1ccc(S(=O)(=O)CCC(=O)N2CCc3ccccc32)cc1,1,0.28
O=C(c1cnc(N2CCN(c3ccccn3)CC2)c2ccccc12)N1CCCCC1,1,0.2
CCc1ccc(Nc2cc(C(=O)NCCc3ccc(Cl)cc3)c3ccccc3n2)cc1,0.93,-1.1
COCCn1c(=O)[nH]c2cc(C(=O)NCCCN3CCC(C)CC3)ccc2c1=O,1.1,1.6
CCn1cc(C(=O)Nc2ccc(C(C)C)cc2)c2cc(OC)c(OC)cc2c1=O,0.95,-0.77
CCOC(=O)c1c(CSc2ccccc2)n(C)c2cc(Br)c(OC(C)=O)cc12,1.1,0.36
O=C(c1ccc2nc(N3CCOCC3)sc2c1)N1CCN(c2cccc(C(F)(F)F)c2)CC1,1,0.025
CCOc1ccc(OCCSc2nc3ccccc3n2CCOc2ccccc2F)cc1,0.94,-1.5
COc1ccc(CCNC(=O)c2nonc2NC(C)=O)cc1OC,1.1,3.4
O=C(CSc1nccn1-c1cccc(Cl)c1)NCc1ccc2c(c1)OCO2,0.9,-1.8
CCOC(=O)c1cccc(NC(=O)CN(C)S(=O)(=O)c2ccc3nc(C)sc3c2)c1,1.2,1.3
COC(=O)c1cc2ccsc2n1Cc1nc(-c2ccc(OC)c(OC)c2)oc1C,0.99,-0.27
CCN(CC)CCCNC(=O)Cn1nc(Cc2cccnc2)c2ccccc2c1=O,1.2,2.1
COc1ccc(C2=NOC(C(=O)Nc3cccnc3)C2)cc1 (centres undefined),1,-0.13
COc1ccc(C2=NN(CC(=O)NCCc3ccc(C)cc3)C(=O)CC2)cc1,0.91,-1.9
CCn1cc(C(=O)N2CCC(Cc3ccccc3)CC2)c2cc(OC)c(OC)cc2c1=O,1,0.52
Cc1cc(C)cc(NS(=O)(=O)c2ccc3[nH]cc(C(=O)NCc4ccccc4)c(=O)c3c2)c1,1.1,1.1
Cc1sc2ncn(CC(=O)N3CCN(c4ccccc4Cl)CC3)c(=O)c2c1C,1,0.38
Cc1cc(N2CCCCC2)nc2ccc(NC(=O)CCC(=O)NCCc3ccc(Cl)cc3)cc12,0.96,-0.64
C=CCn1c(SCc2cccnc2)nc2cc(C(=O)NCc3ccco3)ccc2c1=O,0.86,-2.2
COc1ccc(C)cc1NC(=O)c1cn(-c2ccc(C)c(C)c2)c(=O)c2ccccc12,0.97,-0.34
Cc1ccc(-c2nc(C(=O)NCCCN3CC(C)CC(C)C3)c(C)o2)cc1 (centres undefined),1,0.14
O=C(c1cnn2c1NC(c1ccco1)CC2C(F)(F)F)N1CCN(Cc2ccccc2)CC1 (centres undefined),1,-0.008
Cc1ccc(C)c(N2CCN(C(=O)Cn3ncc4ccsc4c3=O)CC2)c1,0.78,-6.3
CCCN(CCC)CCNC(=O)Cn1ncc2c1-c1cc(C)ccc1OC2,1,0.38
Cc1ccccc1-n1nc2c(c1NC(=O)Cc1ccc(F)cc1)CSC2,0.97,-1.7
N#Cc1c(N2CCN(C(=O)c3ccc([N+](=O)[O-])cc3)CC2)nc(-c2ccccc2)c2c1CCCC2,0.66,-4.9
CCCCC(=O)Nc1cc(-c2nc3ccccc3o2)ccc1OC,1,0.046
CCCOc1ccc(C2CC(=O)Nc3cc4c(cc32)OCO4)cc1 (centres undefined),0.85,-5.9
CCOc1ccc(-n2nc3ccc(NC(=O)c4ccccc4Cl)cc3n2)cc1,0.9,-1.2
CCOc1ccc(OCC)c(NC(=O)c2ccc(CNc3c(N4CCC(C)CC4)c(=O)c3=O)cc2)c1,1,0.011
CC(=O)N1CCCc2cc(S(=O)(=O)Nc3cccc(Cl)c3)ccc21,1.1,0.94
CC1(C)CC(=O)N(CC(=O)NC2CCCC2)c2ccccc2S1(=O)=O,1,0.8
CCc1ccc(-c2nc(SCC(=O)NCCCOC)c(-c3ccccc3)[nH]2)cc1,0.89,-1.8
Cc1ccc2c(c1)-c1c(cnn1CC(=O)N1CCCN(Cc3ccccc3F)C1)CO2,0.96,-0.73
Fc1cccc(Cl)c1Cc1noc(-c2cccs2)n1,1.1,1.1
O=C(Nc1ccc(Cl)cc1)C1CCCN(S(=O)(=O)c2cccc3cccnc23)C1 (centres undefined),1.1,1
COc1ccc(CCNC(=O)c2cc3ccccn3n2)cc1OC,1.2,1.5
Cc1ccccc1Nc1cc(C(=O)NCc2cccnc2)c2ccccc2n1,0.88,-1.8
O=C(NCCc1ccccc1)c1ccccc1NS(=O)(=O)c1ccc(Cl)cc1,1,0.38
O=C(Cc1c(C(=O)O)[nH]c2ccc(Cl)cc12)Nc1ccc(Oc2ccccc2)cc1,0.72,-2.2
COc1ccccc1NC(=O)c1ccc2c(c1)C(=O)N(c1ccc(Br)cc1)C2=O,0.97,-1
O=C(C1CCN(c2nnc(-n3cccc3)s2)CC1)N1CCN(Cc2ccccc2)CC1,1,1
CCOc1ccc(Nc2nc(-c3cccnc3)nc3ccccc23)cc1,1.1,0.12
Cc1ccc(NC(=O)CC23CC4CC(C2)CC(n2nnc(C)n2)(C4)C3)c(C)c1,0.91,-2.1
NS(=O)(=O)c1ccc(NC(=O)c2cncc(Br)c2)cc1,0.98,-0.57
O=C(Nc1cc(F)ccc1F)C1(S(=O)(=O)c2ccc(Cl)cc2)CC1,1,0.47
Cc1nc2c(-c3ccc(F)cc3)c(C)nn2c(C)c1CCC(=O)NCCC(C)C,1,0.48
COc1ccc(N2Cc3cccc(C(=O)NCc4ccccc4OC)c3C2=O)cc1,1,0.7
COc1cc(OC)cc(C(=O)Nc2ccc3nc(N4CCN(c5ncccn5)CC4)cc(C)c3c2)c1,0.96,-0.29
CC(=O)NC(CCS(C)(=O)=O)C(=O)Nc1cc(C)on1 (centres undefined),1.1,3.9
O=C(Cn1nnc(-c2ccccc2F)n1)N1CCOCC1,1.1,0.74
CC1(C)CC(=O)C2=C(C1)N(c1cccc(C(F)(F)F)c1)C(=O)CC2c1ccsc1 (centres undefined),0.99,-0.45
Cc1c(C(=O)NC2CCCc3ccccc32)oc2ccc(S(=O)(=O)N3CCC(C)CC3)cc12 (centres undefined),1.1,1.4

# Next records
SMILES,CBX7 inh,CBX7 inh z-score
COc1ccc(-c2cc(C(F)(F)F)nc(N3CCCC3)n2)cc1OC,1.2,8.6
CCc1cccc(NC(=O)c2cccc3c2C(=O)N(CCOC)C3)c1,1.1,0.63
Cc1ccc2nc(N3CCC(C(=O)NCC4CCCO4)CC3)sc2c1 (centres undefined),1,1.1
Cc1ccc2nc(-c3cccc(S(=O)(=O)N4CC(C)OC(C)C4)c3)cn2c1 (centres undefined),0.96,-1.4
Cc1ccc(S(=O)(=O)c2nc(C(c3ccccc3)c3ccccc3)oc2N(C)C)cc1,1,0.31
CCCCCCOc1ccc(C(=O)Nc2ccc(Br)cn2)cc1,1.3,5.6
Cc1ccc(-c2nnc(OCCN3CCOCC3)c3ccccc23)cc1,0.89,-0.39
COc1cc(OC)cc(-c2cc3nc(C)c(CCC(=O)Nc4ccc(F)c(Cl)c4)c(C)n3n2)c1,1,0.25
Cc1ccc(C(=O)N2CCn3c2nc2ccccc23)cc1,0.93,-1.3
CCCCN(CC)CCCNC(=O)c1cc2c(-c3ccc(OC)c(OC)c3)nn(C)c2s1,1,0.46
CN1CCN(CCNC(=O)Cn2cc3c(n2)CCCC3)CC1,0.99,-0.18
CC1CCN(S(=O)(=O)c2ccc3c(c2)N(CC(=O)N2CCC(C(N)=O)CC2)C(=O)CO3)CC1,1,0.26
O=C(Cn1ncc2ccccc21)NCc1ccccc1F,0.98,-0.58
CCOc1ccc(C2NCCc3cc(OC)c(OC)cc32)cc1OCC (centres undefined),1.2,3.5

# Whole records, looked up by structure. Screens in order: CBX7 inh	CBX7 inh z-score
# CCCOc1ccc(C2CC(=O)Nc3cc4c(cc32)OCO4)cc1 (centres undefined) across the screens: 0.85	-5.9
# Nc1cc(-c2ccc(Cl)cc2)nn1Cc1ccccc1 across the screens: 0.77	-5.1
# CCOc1ccc(OCC)c(NC(=O)c2ccc(CNc3c(N4CCC(C)CC4)c(=O)c3=O)cc2)c1 across the screens: 1	0.011
